MLL AF4-AF9 inh: inhibitors of AF4 peptide binding to AF9, primary screen, biochemical, AlphaScreen, biotin-AF4 peptide, FLAG-AF9, single point; AID 651704, 2012; Protein AF-9 (Homo sapiens), P42568; inhibition, % at 10 µM; 350,000 compounds, 0.47% hits;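 active = every replicate reaching a set inhibition limit, whatever the replicate mean, cut at about 25% in these data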;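 also: 0% = plate neutral control median and 100% = total signal loss; the record names both 10 and 1 µM as test concentration; the first replicate is given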
Target sequence (P42568 whole entry, looked up): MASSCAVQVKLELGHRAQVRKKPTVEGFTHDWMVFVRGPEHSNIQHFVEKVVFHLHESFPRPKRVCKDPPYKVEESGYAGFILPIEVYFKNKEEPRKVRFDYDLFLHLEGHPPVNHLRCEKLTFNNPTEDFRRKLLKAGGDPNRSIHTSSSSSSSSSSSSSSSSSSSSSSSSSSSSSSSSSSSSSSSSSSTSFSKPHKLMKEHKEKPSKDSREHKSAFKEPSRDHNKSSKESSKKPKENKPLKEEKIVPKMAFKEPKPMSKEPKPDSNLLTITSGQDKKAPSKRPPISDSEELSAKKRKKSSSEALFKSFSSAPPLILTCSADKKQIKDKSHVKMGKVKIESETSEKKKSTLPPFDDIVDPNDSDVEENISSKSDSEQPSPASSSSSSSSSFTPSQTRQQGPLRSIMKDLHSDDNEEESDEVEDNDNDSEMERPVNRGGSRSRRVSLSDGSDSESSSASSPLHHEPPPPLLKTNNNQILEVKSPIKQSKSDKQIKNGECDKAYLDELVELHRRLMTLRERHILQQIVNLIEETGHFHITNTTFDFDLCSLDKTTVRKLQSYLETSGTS
Ecoli rRNA inh: reduced GFP signal of wild-type E. coli, primary screen, bacterial rRNA inhibitor project, GFP/RFP fluorescence, OD600, single point; GFP signal change (wild-type ribosome), % (test concentration not listed); E. coli WT GFP vs humanized-ribosome RFP mutants, 24 h; hits give low values; DMSO median 0, no signal -100; 350,000 compounds, 1.6% hits; AID 720706, 2013;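 active = significant combined selectivity score with lowered wild-type GFP, culture density cut under 30%, mutant RFP and density less affected; inactive = any of these conditions unmet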; also: one replicate is shown; some compounds called inactive have numbers as strong as hits
FGF22 binding: binders of human FGF22 protein, primary screen, FGF22 synaptogenesis inhibitor project, biophysical, thermal shift, single point. recombinant FGF22 thermal shift, SYPRO orange fluorescence; percent of sucrose octasulfate shift, DMSO zero. calls only at 9.99 µM. 340,000 compounds, 1.5% hits. AID 651658, 2012;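 active = melting point raised past a set limit in the mean and every replicate; three in four hits are not shown here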
Target sequence (Q9HCT0 whole entry, looked up): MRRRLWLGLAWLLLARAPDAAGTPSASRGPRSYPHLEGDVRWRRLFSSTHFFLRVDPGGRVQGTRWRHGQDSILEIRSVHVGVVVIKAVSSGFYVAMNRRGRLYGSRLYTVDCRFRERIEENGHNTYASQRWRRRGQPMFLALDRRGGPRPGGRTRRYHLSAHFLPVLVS
Ecoli rRNA inh OD600: recorded beside Ecoli rRNA inh, whose call it bears; OD600 change, %; measured here: OD600 growth;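 optical density of the mix in the first replicate; 0 = DMSO median and -100 = no signal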
Ecoli rRNA inh RFP: recorded beside Ecoli rRNA inh, whose call it bears; RFP signal change, %; measured here: RFP humanized mutant strains;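 first replicate; 0 = DMSO median and -100 = no signal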
Starred values were filed as active, the others as inactive; i = inactive; & = joins results of further samples. A portion of the library, so the mix of outcomes need not match the whole.

SMILES	MLL AF4-AF9 inh	Ecoli rRNA inh	Ecoli rRNA inh OD600	Ecoli rRNA inh RFP	FGF22 binding
C[C@@H]1CN([C@@H](C)CO)S(=O)(=O)c2ccc(C#CCC3CCCC3)cc2O[C@H]1CN(C)C	9.9	4.5	-33.1	10.6	i
CN1CCN(C(=O)C[C@H]2CC[C@H]3[C@@H](COC[C@H](O)CN3Cc3cccc(F)c3)O2)CC1	3.1	2.1	12.0	-3.0	i
CCOC(=O)C1=C[C@@H](C(C)(C)C)N(S(=O)(=O)c2ccc(C)cc2)[C@H]1c1ccc(OC)cc1	-3.1	3.3	10.3	-6.9	i
C[C@@H]1CN([C@@H](C)CO)C(=O)c2cccc(NC(=O)Nc3ccc(F)cc3)c2O[C@@H]1CN(C)Cc1ccc(C(=O)Nc2ccccc2N)cc1	-0.9	-3.9	-3.8	-2.1	i
Nc1ncncc1-c1ccccc1Cl	-1.6	-4.8	-8.3	-8.1	i
C[C@@H]1CN([C@H](C)CO)S(=O)(=O)c2ccc(C3=CCCC3)cc2O[C@@H]1CN(C)Cc1cncnc1	-0.1	0.9	6.7	1.9	i
COc1ccc([N+](=O)[O-])cc1NCC(=O)Nc1cccc(S(=O)(=O)N2CCCC2)c1	9.2	-8.9	-4.3	2.7	i
Cc1ccc(S(=O)(=O)N(C)C[C@H]2Oc3ccc(NC(=O)Nc4ccc5c(c4)OCO5)cc3C(=O)N([C@H](C)CO)C[C@H]2C)cc1	2.9	-1.2	-9.8	0.4	i
O=C(C[C@H]1CC[C@H]2[C@@H](COC[C@@H](O)CN2Cc2cc(F)ccc2F)O1)N1CCc2ccccc2C1	3.1	-27.4	-46.7	15.5	i
CC(C)NC(=O)N(C)C[C@@H]1Oc2ccc(NC(=O)Nc3ccc4c(c3)OCO4)cc2C(=O)N([C@H](C)CO)C[C@H]1C	-0.8	2.8	0.0	-2.5	i
Cc1ccccc1-c1cccc([C@@H]2C[C@H]3C(CN2)CON3C)c1 (stereo not given in full)	1.0	3.4	2.3	-0.2	i
CC(C)NC(=O)Nc1ccc2c(c1)C(=O)N([C@H](C)CO)C[C@@H](C)[C@H](CN(C)Cc1ccc(C(=O)O)cc1)OCCCC[C@@H](C)O2	-4.9	1.6	2.3	-1.8	i
CCCCCCCCN1C(=O)[C@@H](CC(=O)NCc2cccs2)C[C@@]2(C(=O)OC)C1=C[C@H](C(C)(C)C)O[C@@H]2C	1.7	0.4	6.6	-2.8	i
CNC[C@@H]1Oc2cc(Br)ccc2S(=O)(=O)N([C@H](C)CO)C[C@H]1C	-0.9&-3.4&-0.4	16.5&-1.5	11.0&-4.7	0.3&-3.2	i
C[C@@H]1CN([C@@H](C)CO)C(=O)Cc2cc(NC(=O)Nc3ccc(F)cc3)ccc2O[C@@H]1CN(C)S(=O)(=O)c1ccccc1	2.9	-2.6	-10.7	0.2	i
CNC(=O)C1(c2ccccc2)CCCCC1	-2.5	13.8	10.6	1.8	i
COc1ccc(NC(C)=O)c([N+](=O)[O-])c1[N+](=O)[O-]	0.2	2.4	10.6	0.6	i
CC(C)NC(=O)N(C)C[C@H]1Oc2c(NC(=O)Nc3cccc4ccccc34)cccc2C(=O)N([C@H](C)CO)C[C@H]1C	4.9	0.7	-6.0	-0.5	i
COCCN(C(=O)c1ccc(C)c(S(=O)(=O)N2CCOCC2)c1)c1c(N)n(CC(C)C)c(=O)[nH]c1=O	-6.0	7.8	14.9	-1.1	i
CCSc1cnnc2ccccc12	-6.2	0.5	1.8	1.2	i
CC(C)NC(=O)N(C)C[C@@H]1OCCCC[C@H](C)Oc2ccc(N(C)C)cc2C(=O)N([C@H](C)CO)C[C@H]1C	0.7	2.2	1.1	-0.1	i
COC(=O)C[C@@H]1C=C[C@@H](NS(=O)(=O)c2ccc(OC)cc2)[C@@H](CO)O1	-3.0&-0.9	-0.1&1.6	3.4&6.0	2.0&1.1	i
C[C@@H]1CN([C@H](C)CO)C(=O)c2cc(/C=C/c3ccccc3)cnc2O[C@H]1CN(C)Cc1ccccc1F	23.8	-29.2	-61.4	17.9	i
Cc1noc(C)c1C(=O)N(C)C[C@@H]1OCc2ccccc2-c2c(n(C)c3ccccc23)C(=O)N([C@@H](C)CO)C[C@H]1C	-3.3	0.7	5.8	-1.8	i
C[C@@H]1CN([C@@H](C)CO)C(=O)c2cc(NC(=O)CCN3CCOCC3)ccc2O[C@@H]1CN(C)S(=O)(=O)c1cccs1	-11.2	-1.7	0.5	-2.0	i
C[C@@H]1CN([C@H](C)CO)C(=O)c2cccc(NS(=O)(=O)c3cn(C)cn3)c2O[C@H]1CN(C)C(=O)Nc1ccc(F)cc1	-2.4	0.9	1.1	-0.8	i
Cc1ccc(NC(=O)COc2ccccc2)cc1S(=O)(=O)N1CCCCC1	-2.2	0.5	-23.0	-0.3	i
C[C@H]1CN([C@@H](C)CO)C(=O)c2cc(N(C)C)ccc2O[C@@H]1CN(C)Cc1ccc(C(=O)Nc2ccccc2N)cc1	10.6	0.3	7.2	-3.0	i
C[C@H](CO)N1C[C@H](C)[C@@H](CN(C)S(=O)(=O)c2ccccc2)Oc2ccc(NC(=O)Nc3ccccc3)cc2CC1=O	-6.4	0.4	1.8	3.6	i
COc1ccccc1-c1ccc([C@@H]2[C@@H](C#N)N(C(=O)C3CCCCC3)[C@@H]2CO)cc1	-0.9	-15.4	-38.3	3.9	i
C[C@@H]1CN([C@@H](C)CO)C(=O)c2cc(C#CC3CCCCC3)cnc2O[C@@H]1CN(C)C(=O)Cc1ccccn1	1.6	4.4	2.4	0.5	i
CO[C@@H]1CN(C)C(=O)c2cc(NS(=O)(=O)c3ccc(C)cc3)ccc2OC[C@@H](C)NC[C@@H]1C	-0.4	0.7	-0.2	1.7	i
COC(=O)CCNC(=O)Cc1ccc(S(=O)(=O)N2CCCCC2)s1	4.0	11.9	8.4	-2.7	i
C[C@H](CO)N1C[C@H](C)[C@@H](CN(C)C(=O)Nc2ccc(F)cc2)OCCCC[C@H](C)Oc2ccc(NS(=O)(=O)c3cn(C)cn3)cc2C1=O	-9.9	-0.6	4.3	2.1	i
CC(C)NC(=O)Nc1ccc2c(c1)C(=O)N([C@@H](C)CO)C[C@H](C)[C@H](CN(C)S(=O)(=O)c1ccc(F)cc1)OCCCC[C@@H](C)O2	-4.8	-0.1	0.1	-0.2	i
C/C=C/c1ccc([C@@H]2[C@@H](CO)N3CCCCN(C(=O)Nc4ccc(F)cc4)C[C@H]23)cc1	4.4	2.6	-22.0	5.4	i
CCC(=O)N1C[C@@H](C)[C@@H](OC)CN(C)C(=O)c2ccc(NC(=O)NC(C)C)cc2OC[C@H]1C	-0.9	0.6	0.5	-1.0	i
CNC[C@H]1OCCCC[C@@H](C)Oc2ccc(NC(=O)C3CCCCC3)cc2C(=O)N([C@@H](C)CO)C[C@H]1C	0.8	0.8	-3.3	-1.3	i
Cc1ccc(S(=O)(=O)Nc2cccc3c2O[C@H](CN(C)S(=O)(=O)c2ccc(Cl)cc2)[C@H](C)CN([C@H](C)CO)C3=O)cc1	-1.7	-0.1	-7.1	1.1	i
Cc1ccc(S(=O)(=O)N[C@@H]2CC[C@@H](CC(=O)N3CCN(c4ccccc4)CC3)O[C@H]2CO)cc1	0.1	1.0	-0.9	-0.6	i
C[C@H]1CN([C@@H](C)CO)C(=O)CCCn2cc(nn2)CO[C@H]1CN(C)Cc1ccc2c(c1)OCCO2	0.4	-0.9	-3.5	-1.6	i
COc1ccc(NC(=O)N(C)C[C@@H]2Oc3ccc(NC(=O)C4CCCCC4)cc3CC(=O)N([C@@H](C)CO)C[C@H]2C)cc1	1.2	-1.3	4.8	-0.8	i
CO[C@H]1CN(C)C(=O)c2cc(NC(=O)C3CCCCC3)ccc2OC[C@H](C)N(C)C[C@@H]1C	-1.3	0.3	-2.5	-1.2	i
Cc1nn(-c2ccccc2)c(Cl)c1/C=C(/CC(=O)O)c1nc2ccccc2s1	-5.7	-25.9	-56.3	-8.2	i
COc1cccc(C#Cc2ccc([C@@H]3[C@@H](C#N)N(C(=O)c4ccccn4)[C@@H]3CO)cc2)c1	-3.5	4.9	1.1	0.3	i
COCC(=O)N(C)C[C@@H]1Oc2ncc(C#CC3(O)CCCC3)cc2C(=O)N([C@@H](C)CO)C[C@@H]1C	-2.1	3.0	5.2	1.8	i
COc1cccc(S(=O)(=O)N[C@@H]2CC[C@H](CCn3cc(-c4ccc(F)cc4)nn3)O[C@H]2CO)c1	1.8	0.8	-1.9	-1.6	i
COCC(=O)N1C[C@@H](C)[C@@H](OC)CN(C)C(=O)c2ccc(NC(=O)NC(C)C)cc2OC[C@H]1C	-2.2	1.6	0.1	0.3	i

Brought forward from above: 4 entries; new compounds follow.
SMILES	MLL AF4-AF9 inh	Ecoli rRNA inh	Ecoli rRNA inh OD600	Ecoli rRNA inh RFP	FGF22 binding
COc1cccc(C#Cc2ccc([C@@H]3[C@@H](C#N)N(C(=O)c4ccccn4)[C@@H]3CO)cc2)c1	-3.5	4.9	1.1	0.3	i
COCC(=O)N(C)C[C@@H]1Oc2ncc(C#CC3(O)CCCC3)cc2C(=O)N([C@@H](C)CO)C[C@@H]1C	-2.1	3.0	5.2	1.8	i
COc1cccc(S(=O)(=O)N[C@@H]2CC[C@H](CCn3cc(-c4ccc(F)cc4)nn3)O[C@H]2CO)c1	1.8	0.8	-1.9	-1.6	i
COCC(=O)N1C[C@@H](C)[C@@H](OC)CN(C)C(=O)c2ccc(NC(=O)NC(C)C)cc2OC[C@H]1C	-2.2	1.6	0.1	0.3	i
Cc1noc(C)c1NC(=O)Nc1ccc2c(c1)C(=O)N([C@H](C)CO)C[C@@H](C)[C@@H](CN(C)Cc1ccncc1)O2	-0.3	1.3	5.2	-1.6	i
COCc1cn(CC[C@H]2CC[C@@H](NC(=O)Nc3ccc(C(F)(F)F)cc3)[C@H](CO)O2)nn1	1.4	4.1	2.5	-0.2	i
CN(C)CC#Cc1ccc([C@H]2[C@H](CO)N3CCCCN(C(=O)Nc4cc(F)ccc4F)C[C@@H]23)cc1	13.2	3.4	2.1	-4.4	i
CCOC(=O)C1(C)CCN1C(=O)c1ccc(C#N)cc1 (stereo not given)	-0.3	19.4	20.1	1.7	i
CCc1nc2c(OCc3ccccc3)cccn2c1N(C)C(=O)c1ccco1	-0.7	1.4	5.8	2.1	i
CCCC1SCC(C)(C)NC1=O (stereo not given)	-2.4	13.3	1.0	1.4	i
COc1cccc(-c2ccc3n(c2=O)C[C@@H]2N[C@H]3[C@H](C(=O)N3CCCCC3)[C@H]2CO)c1	-0.4	-2.9	7.6	-2.1	i
COCC(=O)N(C)C[C@@H]1Oc2ncc(C3=CCCCC3)cc2C(=O)N([C@@H](C)CO)C[C@H]1C	-3.3	3.6	21.1	-2.8	i
CN(C)CC(=O)N[C@@H]1CC[C@@H](CC(=O)NCc2ccccc2F)O[C@H]1CO	-2.2	1.9	2.8	-2.4	i
C[C@@H]1CN([C@H](C)CO)C(=O)c2cc(NC(=O)CCCN(C)C)ccc2O[C@H]1CN(C)C(=O)Nc1cccc2ccccc12	-2.3	2.0	4.1	2.1	i
C[C@@H]1CN([C@H](C)CO)S(=O)(=O)c2ccc(-c3ccccc3)cc2O[C@@H]1CN(C)Cc1cccnc1	6.6	-6.6	-25.9	9.7	i
CC(C)NC(=O)N1[C@H](CO)[C@@H]2c3ccccc3N(C(=O)c3ccccn3)C[C@@H]21	0.1	4.5	12.7	-3.7	i
COc1ccc2c3c([nH]c2c1)[C@H](CO)N(C(=O)CN1CCOCC1)CC31CN(C(=O)NC(C)C)C1	-0.5	3.8	8.5	-1.8	i
CCN1[C@@H]2Cn3c(ccc(-c4cccnc4)c3=O)[C@H]1[C@@H](C(=O)NC1CCCCC1)[C@@H]2CO	0.9	1.1	-1.2	-3.5	i
Cc1ccc(-c2cnc3c(c2)C(=O)N([C@@H](C)CO)C[C@H](C)[C@@H](CN(C)CC2CCOCC2)O3)cc1	0.3	2.0	1.8	-1.5	i
C[C@H]1CN([C@@H](C)CO)C(=O)Cc2cc(NC(=O)Cc3ccccc3)ccc2O[C@H]1CN(C)Cc1ccc(C(F)(F)F)cc1	1.4	-0.3	-7.3	4.4	i
COc1ccc(NC(=O)N[C@@H]2C=C[C@@H](CC(=O)NC3CCCCC3)O[C@H]2CO)cc1	-1.3	5.6	3.2	0.6	i
CCc1nc2ccc(C(=O)NCCCN3CCCC3=O)cn2c1N(CC)CCN(C)C	-11.3	14.2	9.5	0.3	i
C[C@H](CO)N1C[C@H](C)[C@H](CN(C)S(=O)(=O)c2ccc(C#N)cc2)OCc2ccccc2-c2c(n(C)c3ccccc23)C1=O	4.8	-1.4	-7.2	-1.2	i
C[C@@H]1CCCCO[C@@H](CN(C)C(=O)Nc2cccc3ccccc23)[C@@H](C)CN([C@@H](C)CO)C(=O)c2cc(NC(=O)Nc3ccc(C(F)(F)F)cc3)ccc2O1	-2.7	2.2	6.4	0.2	i

Screens deposited in PubChem BioAssay by Broad Institute.
